# CapD inh = CapD enzyme inhibition; 140,000 tested, 0.23% active; purified CapD enzyme, fluorescence intensity read-out; active compounds read low; some hits fall short of the stated cut; z-score (test concentration not listed);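 active = z-score under -4 in either of two replicates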;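 also: stock transfer was 100 nL into about 40 µL; score is relative to mean and spread of the plate; one replicate is shown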
# AID504770 = E. coli YBA685 growth inhibition, screen for V. cholerae RctB inhibitors; z-score (test concentration not listed); E. coli YBA685 rctB-dependent plasmid, OD600 growth, 3 h; active compounds read low; 130,000 tested, 0.27% active;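 active = z-score under -2 on both plates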;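 also: wells of about 30 µL received 100 nL stock; score is relative to mean and SD of the test wells; the first replicate is given; strong numbers were not always called active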
# * = called active by the depositor; i = inactive; · = no result given. This is a subset, so the mix of outcomes need not match the whole.
# Under each structure – AID504770 | CapD inh
- COc1ccccc1NC(=O)c1cccn(OCc2ccccc2)c1=O
    -0.75 | -1.2
- CCOC(=O)N1CCC(NC(=O)Cn2c3ccccc3c(=O)c3ccccc32)CC1
    · | 9.2
- NC(=O)c1ccc(Oc2ccc(C(N)=O)cc2)cc1
    -0.45 | i
- Cc1cc2cc(CNC(=O)CC(C)C)ccc2[nH]1
    -0.7 | 0.35
- CC(C)NC(=O)NC(=O)c1ccccc1
    -0.5 | 0.19
- CCCCCCCCCCOCCOCCOC(=O)N1CCN(C(c2ccccc2)c2ccc(Cl)cc2)CC1 (centres undefined)
    · | 0.39
- CCC(=O)N1c2ccc(S(=O)(=O)NCc3ccccc3)cc2CC1C (centres undefined)
    -0.5 | -0.085
- CNC(=S)N1CCN(c2ccc(Cl)c(Cl)c2)CC1
    -0.9 | 0.51
- CCOC(=O)N1CCC2(CC1)OC(=O)C(C)=C2C(=O)NCc1ccccc1
    1.6 | -0.18
- O=C(NC1CCCC1)C1CCN(S(=O)(=O)c2cccc3nonc23)CC1
    -0.25 | 0.39
- CC(C)(C)OC(=O)NC1CCN(c2ncc(C(F)(F)F)cc2Cl)CC1
    · | -0.07
- CCN(CC)S(=O)(=O)c1ccc2c(c1)nc(SC1CCOC1=O)n2CC (centres undefined)
    0.2 | ·
- Cc1ccc(C2=Nn3c(C)nnc3SC2)cc1
    -0.9 | 0.14
- COc1ccc(S(=O)(=O)N2CCN(c3ccncc3)CC2)cc1OC
    · | -0.46
- COc1ccc(C2CC(=O)NC(Nc3nc(C)c4ccc(C)cc4n3)=N2)cc1 (centres undefined)
    · | 4.1
- CCOC(=O)C1CCCN(C(=S)Nc2ccc(OCC)cc2)C1 (centres undefined)
    -1.1 | -0.11
- c1csc(-c2noc(CNC3Cc4ccccc4C3)n2)c1
    1.5 | -1.1
- Cn1c(=NC(=O)CSCC(=O)N2CCCc3ccccc32)sc2ccccc21
    -0.5 | -0.39
- COC(=O)c1ccc(CSc2nnnn2Cc2ccccc2)cc1
    -1.1 | -0.58
- CC(NC(=O)c1cccc(N)c1)c1ccccc1 (centres undefined)
    -0.65 | 18
- COc1ccc(NS(=O)(=O)c2cc(Br)cnc2N)cc1
    -2.7 | -0.41
- O=c1cc(C(F)(F)F)[nH]c(=S)[nH]1
    1.2 | -2.1
- COc1cc2ncnc(Nc3ccccc3)c2cc1OC
    0.1 | 3.1
- COc1ccc(-c2cc(C(F)(F)F)nc(SCCC(=O)N3CCN(C)CC3)n2)cc1
    1.1 | ·
- O=C(Cn1cnc2c(oc3ccccc32)c1=O)c1ccccc1
    -0.15 | ·
- Cc1cc(C(=O)NCc2ccc(C(=O)O)o2)c(C)o1
    0.4 | ·
- CCc1c(NCc2ccccc2)c2cccc3c2n(c1=O)CCC3
    -3.3 | 2.7
- CC1=C(C#Cc2ccccc2)c2ccccc2OC1(c1ccccc1)N1CCCCC1 (centres undefined)
    · | -0.35
- CCOC(=O)C1=NNC2C(=O)N(c3cccc4ccccc34)C(=O)C12 (centres undefined)
    · | -0.025
- Cc1cccc(NC(=O)C(=S)N2CCOCC2)c1C
    2 | -0.11
- CCOC(=O)N1CCC(N2Cc3cccc(C(=O)N4CCN(c5cccc(Cl)c5)CC4)c3C2=O)CC1
    -0.05 | 0.22
- CCN(CC)CC(=O)Nc1ccc(S(N)(=O)=O)cc1
    -0.6 | 1.1
- Cc1ccc(OCc2nnc(SCC(=O)c3ccc(F)cc3)n2-c2ccccc2)c2c1CCC2
    · | -0.02
- COc1ccc(C(=O)[C@@H]2[C@@H](c3cccc(Br)c3)C(C#N)(C#N)[C@H]3C=Cc4ccccc4N23)cc1
    · | 5.8
- Nc1nc(-c2ccc(-n3cccc3)cc2)cc(C(F)(F)F)n1
    · | -2.3
- CCN(C(=O)CC(C)C)C1CCCCC1
    -0.35 | 0.025
- N#CCCSc1sc(=S)sc1SCCC#N
    · | -0.34
- O=C(O)CCc1nc2ccccc2c(=O)n1-c1ccc(F)cc1
    -0.05 | ·
- Cn1nnc2cc(C(=O)N3CCCCC3)ccc21
    -0.55 | 0.35
- COc1ccc(S(=O)(=O)Nc2ccc3oc4ncccc4c(=O)c3c2)cc1OC
    · | 0.3
- CC(C)(C)c1cc(C(C)(C)C)n(-c2ccc(NC(=O)COCC(=O)O)cc2)n1
    0.6 | 0.73
- COc1ccc(OC2C(=O)N(Cc3ccc4c(c3)OCO4)C2c2cccs2)cc1 (centres undefined)
    -0.25 | -0.57
- Cc1ccc(N2C(=O)CC(Sc3nc4ccccc4o3)C2=O)cc1 (centres undefined)
    · | 0.065
- CSc1cccc(-n2c(-c3ccc(Cl)cc3)csc2=N)c1
    -0.45 | -0.48
- Cn1cc(-c2ccc(C(=O)NCCc3ccccc3)cn2)cn1
    · | 1

# Sorted by heavy-atom count (low to high): 3 of the compounds above.
# Under each structure – AID504770 | CapD inh
- O=C(O)CCc1nc2ccccc2c(=O)n1-c1ccc(F)cc1
    -0.05 | ·
- Cc1ccc(N2C(=O)CC(Sc3nc4ccccc4o3)C2=O)cc1 (centres undefined)
    · | 0.065
- COc1ccc(S(=O)(=O)Nc2ccc3oc4ncccc4c(=O)c3c2)cc1OC
    · | 0.3

# Next section.
# Under each structure – AID504770 | CapD inh
- COC(=O)C12CC3(C(=O)OC)CC(C(=O)OC)(CC(C(=O)OC)(C1)C3=O)C2=O
    0.9 | 0.025
- O=C(NC1CCCCCC1)C1=CN2CCS(=O)(=O)N=C2C=C1
    0.15 | ·
- CCCc1cc(=O)[nH]c(SCC(=O)NC2Cc3ccccc3C2)n1
    · | -0.33
- CCSc1nnc2c3cc(Br)ccc3n(C)c2n1
    -0.45 | ·
- O=C(CSc1ccccc1Cl)N1CCCC1
    -0.1 | 0.48
- O=C(CCC(=O)N1CCSc2ccccc21)N1CCCCC1
    0.85 | -0.51
- COC(=O)c1cn(CC(=O)OCC(=O)Nc2ccc(N3CCOCC3)cc2)c2ccccc12
    0.1 | ·
- O=C(/C=C/c1ccc(F)cc1Cl)NNC(=O)OCCc1c(F)cccc1Cl
    · | 5.5
- Cc1ccc(/C=C/C(=O)O)cc1S(=O)(=O)N1CCCC1
    -0.35 | 0.03
- Cc1cc(NC(=O)C2c3ccccc3C(=O)N(CC(C)C)C2c2cccs2)no1 (centres undefined)
    1 | -0.26
- Cc1cccc(C(=O)CC#N)c1
    · | -0.22
- CCCCCCc1ccc(-c2ccccc2)cc1
    · | -0.51
- Cc1cc2oc(=O)cc(CSc3ncccn3)c2cc1Cl
    -3.1* | ·
- O=C(Nc1ccc(-c2nc3ccc(Br)cc3c(=O)o2)cc1)c1ccco1
    -0.25 | 3.9
- COc1ccc(S(=O)(=O)N2CCCC2C(=O)N2CCc3cc(OC)c(OC)cc3C2)cc1 (centres undefined)
    2.8 | -0.27

# Reformatted field by field: 4 of the compounds above.
Molecule: CCCc1cc(=O)[nH]c(SCC(=O)NC2Cc3ccccc3C2)n1
  AID504770: ·
  CapD inh: -0.33

Molecule: CCSc1nnc2c3cc(Br)ccc3n(C)c2n1
  AID504770: -0.45
  CapD inh: ·

Molecule: O=C(CSc1ccccc1Cl)N1CCCC1
  AID504770: -0.1
  CapD inh: 0.48

Molecule: O=C(CCC(=O)N1CCSc2ccccc21)N1CCCCC1
  AID504770: 0.85
  CapD inh: -0.51

# Remaining list, next part:
# Under each structure – AID504770 | CapD inh
- CCOc1cc(CCC(=O)NCCn2ccnc2C)on1
    -0.25 | ·
- CCN(CC)C(=O)c1ccc(N)cc1
    -1.1 | ·
- N#Cc1c(NC(=O)COc2ccccc2)sc2c1CCC2
    1 | i
- CC(C)COc1ccccc1NC(=O)C1OC2OC(C)(C)OC2C2OC(C)(C)OC12 (centres undefined)
    · | -0.63
- CCCCN(C(C)(C)C)S(=O)(=O)c1ccc(C)cc1
    0.25 | -0.61
- CCC(=O)NCC12CC3CC(C1)CC(c1ccc(C)cc1)(C3)C2
    · | -0.17
- O=C1/C(=C/c2ccc(Br)cc2)C=C(c2ccccc2)N1c1cccc2ccccc12
    · | 1.3
- O=C(OCC(=O)N1CCCC1=O)c1ccc2ncsc2c1
    -0.35 | ·
- CC(=O)Nc1ccccc1OCC(=O)Nc1cc(C)cc(C)c1
    2.4 | ·
- O=C(CN1C(=O)c2ccccc2C1=O)OCc1cc(=O)n2cc(Br)ccc2n1
    0.7 | ·
- Cc1ccc(-c2nn(CC(=O)NC3CCCc4ccccc43)c(=O)c3ccccc23)cc1 (centres undefined)
    -0.05 | 32
- CCCn1c(N)c(N2CCCCC2)c(=O)n(CC(=O)Nc2ccccc2)c1=O
    -0.3 | ·
- COc1ccc(N2CCN(C(=O)CSc3nc4[nH]ncc4c(=O)n3-c3ccccc3C)CC2)cc1
    · | -0.2
- O=C(Nc1ccc(Br)cc1)c1ccc(F)c(S(=O)(=O)N2CCN(c3ccccn3)CC2)c1
    · | -0.77
- NC(=S)N/N=C1/C2C3CC4C5C3C1C5C1(OCCO1)C42 (centres undefined)
    0.15 | ·
- Cc1cc(C)nc(Sc2ccc(NC(=O)c3ccc(C(C)(C)C)cc3)cc2)n1
    · | -0.66
- CCOC(=O)C1(c2ccccc2)CCN(C(=O)c2c(C)oc3ccc(OC)cc23)CC1
    -0.95 | -0.59
- COc1ccc(Br)cc1C=NNC(=O)c1ccccc1NC(=O)c1cccs1
    · | 0.47
- COc1ccc(C2CC(=O)C3=C(C2)Nc2ccccc2NC3c2cc(OC)c(O)c(OC)c2)cc1 (centres undefined)
    · | -1.5
- COc1cc(C2C3=C(CC(C)(C)CC3=O)OC3=C2C(=O)CC(C)(C)C3)ccc1OCc1ccc(Cl)cc1
    · | -0.62
- COC(=O)c1[nH]c(C)c(C(=O)OC)c1C
    -0.15 | 0.08
- CC(C)OC(=O)CSc1n[nH]c(=O)[nH]c1=O
    0.35 | 0.23
- COC(=O)NC12CC3CC(CC(C3)C1)C2
    0.35 | -0.095
- COc1ccc(CN2C(=O)CC(C(=O)Nc3ccc(C(=O)O)cc3)SC2=Nc2ccccc2)cc1 (centres undefined)
    · | -0.14
- C=CCSc1nc2c(cc1C#N)CCC2
    -0.05 | -0.54
- COc1ccc(CC2C(=O)NC(=O)N(c3ccccc3)C2=O)c(OC)c1 (centres undefined)
    0.75 | ·
- O=S(=O)(c1ccc(Cl)cc1)C(F)(F)F
    0.7 | -0.055
- CN(C)C(C/C=N/OCC(=O)N1CCN(c2ccccc2)CC1)=C(C#N)C#N
    · | -0.4
- Cc1ccc(O)c(C(=O)c2cnc(Nc3nc4ccccc4[nH]3)nc2)c1
    -0.45 | ·
- O=C1CCCN1C(=O)CSc1nc2ccccc2o1
    -0.45 | ·
- NNS(=O)(=O)c1ccc(F)cc1
    · | -0.22
- COc1cc(-c2nc3c4ccccc4c4ccccc4c3[nH]2)ccc1O
    -1.2 | 32
- O=C(CSc1n[nH]c(-c2ccccc2Cl)n1)Nc1ccccc1F
    1.9 | -0.27
- CC(C)(C)OC(=O)NC1CCN(C(=O)c2csc(-c3cnccn3)n2)C1 (centres undefined)
    · | 0.79
- C=CCN(CC=C)C(=S)Oc1ccc(C(=O)Nc2cccc3ccccc23)cc1
    0.65 | 0.24
- CCOCC(=O)NC1CCSC1=O (centres undefined)
    -0.35 | -1.1
- CC(=O)OCCn1nc(C)cc1Nc1ccccc1
    1.4 | -0.39
- COc1ccc(NC(=O)c2cc(=O)[nH]c3ccccc23)cc1
    0.45 | ·
- O=C(O)c1cn(-c2ccc(F)cc2)c2cc(N3CCN(CC(F)(F)F)CC3)c(F)cc2c1=O
    · | 0.37
- CCN(CC)C(=S)SCc1nc2ccccc2c(=O)[nH]1
    -0.6 | ·
- COc1ccc(-c2nn(CCC#N)c(=O)[nH]2)cc1
    -0.05 | 0.57
- O=C1CC2(CCCCC2)C(=O)N1Cc1ccc(Cl)cc1
    -0.25 | ·
- Cc1cc(-n2c(C)cc(C(=O)COC(=O)C34CCC(=O)N3c3ccccc3S4)c2C)no1 (centres undefined)
    -0.15 | ·
- OC(CSc1ccccc1Cl)CN1CCN(c2ccccc2F)CC1 (centres undefined)
    · | -0.59
- Cc1cc(NC(=O)Cc2ccccc2)nc2c1c(=O)oc1ccccc12
    0.15 | 3.7
- COC(=O)c1sc(=S)sc1C(=O)OC
    -0.1 | -1.6
- Cn1c(=O)c2ccccc2n2c(COC(=O)c3cc4c(s3)-c3ccccc3CC4)nnc12
    1.6 | ·
- C=CCn1nnnc1-c1cccc(Cl)c1
    -1.2 | 0.33
- O=C(NC1CCCC1)C1CCN(C(=O)N2CCOc3ccccc32)CC1
    0.3 | 0.23
- Cc1nc(C)c(CCC(=O)O)c(=O)[nH]1
    0.65 | ·
- CN(C)S(=O)(=O)c1ccc(C(=O)OC2=CC(=O)CC(C)(C)C2)cc1
    -0.3 | ·
- COc1ccc(-n2cnc3cc(N=Cc4ccccc4O)ccc32)cc1
    2.1 | 0.93
- N#CC(C#N)C(c1ccccc1Cl)C(C(N)=O)[n+]1ccccc1 (centres undefined)
    -0.3 | 0.28
- O=C(OCCc1ccccc1Br)N1CCN(c2ncnc3sccc23)CC1
    · | 0.12
- O=C(O)CCS(=O)(=O)N1CCOCC1
    1.9 | ·
- COc1ccc(-c2cc3nc(C)c(CCC(=O)Nc4ccccc4C(N)=O)c(C)n3n2)c(OC)c1
    0.05 | -0.2
- c1ccc2[nH]c(SCCN3CCCC3)nc2c1
    -0.3 | 0.23
- COc1nc(NC23CC4CC(CC(C4)C2)C3)nc(OC)n1
    1.4 | ·
- O=C(NC(=O)c1ccc(C(F)(F)F)cc1)Nc1ccc(-c2cnco2)cc1
    · | 0.21
- CCCc1ccc(-c2nc(CS(=O)(=O)c3ccsc3)no2)cc1
    -0.6 | -0.99

# Additional compounds follow.
# Under each structure – AID504770 | CapD inh
- CC1=C(C(=O)Nc2ccccc2)C(c2ccncc2)n2ncnc2N1 (centres undefined)
    0.5 | 1.8
- O=C(NCc1ccc2c(c1)OCO2)c1ccccn1
    -0.6 | ·
- Cc1nc(N2CCC(C)CC2)c2c(C)c(C(=O)N3CCC(C)CC3)sc2n1
    · | 0.65
- O=C(Cn1c2ccccc2c2ccccc21)Sc1nc2ccccc2s1
    -0.85 | 4.5
- CN1CCCN(C(=O)C2CCCCC2)CC1
    -0.3 | -0.31
- CC(C)c1ccc(Nc2nc(N3CCCCC3)nc(N3CCCCC3)n2)cc1
    -0.45 | 0.52
